YopH inh = inhibitors of Yersinia enterocolitica YopH tyrosine phosphatase | fluorescence Ex485/Em525 | inhibition, %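 (about 10 µM by stock and volumes)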 | 140,000 tested, 0.16% active;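 active means inhibition of 50% or more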;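 further: controls were vehicle for no effect and minimum signal wells for full effect; inactives centre near -20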
Arbovirus inh = arbovirus infection inhibition | 200,000 tested, 0.37% active | inhibition, % at 10 µM | AID 1251 | arbovirus infection cell-based antiviral screen;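 active means inhibition from about 30%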;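 further: bluetongue infection of BSR cells; cell survival read as ATP light after 72 h; 0% = infected wells without compound and 100% = uninfected wells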
Mtb bLac sens = beta-lactam sensitization of Mtb H37Rv | M. tuberculosis H37Rv growth with meropenem, percent inhibition; hits of this screen are not shown here | inhibition, % at 25 µM | 330,000 tested, 0.27% active;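 active means about 74% or more and at least 40 points above the plate without the antibiotic, then above 30% in a dose series; inconclusive means first-round hits that could not be retested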;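 further: growth measured after seven days incubation then overnight dye step; 0% = bacteria only wells and 100% = bacteria with antibiotic; twin plates without the antibiotic show which effects depend on it; some results filed as inactive read as strong as hits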
RecA splice inh = inhibitors of M. tuberculosis RecA intein splicing; P9WHJ3; cell-free RecA intein splicing, fluorescence; inhibition, %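 (about 9 µM by stock and volumes)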; 290,000 tested, 0.75% active; AID 2221; in the data active means inhibition above about 30%; inconclusive means no clear call, values can overlap the other calls;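 further: 0% = vehicle wells and 100% = reference inhibitor control wells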
Target sequence (P9WHJ3 whole entry, looked up, canonical isoform): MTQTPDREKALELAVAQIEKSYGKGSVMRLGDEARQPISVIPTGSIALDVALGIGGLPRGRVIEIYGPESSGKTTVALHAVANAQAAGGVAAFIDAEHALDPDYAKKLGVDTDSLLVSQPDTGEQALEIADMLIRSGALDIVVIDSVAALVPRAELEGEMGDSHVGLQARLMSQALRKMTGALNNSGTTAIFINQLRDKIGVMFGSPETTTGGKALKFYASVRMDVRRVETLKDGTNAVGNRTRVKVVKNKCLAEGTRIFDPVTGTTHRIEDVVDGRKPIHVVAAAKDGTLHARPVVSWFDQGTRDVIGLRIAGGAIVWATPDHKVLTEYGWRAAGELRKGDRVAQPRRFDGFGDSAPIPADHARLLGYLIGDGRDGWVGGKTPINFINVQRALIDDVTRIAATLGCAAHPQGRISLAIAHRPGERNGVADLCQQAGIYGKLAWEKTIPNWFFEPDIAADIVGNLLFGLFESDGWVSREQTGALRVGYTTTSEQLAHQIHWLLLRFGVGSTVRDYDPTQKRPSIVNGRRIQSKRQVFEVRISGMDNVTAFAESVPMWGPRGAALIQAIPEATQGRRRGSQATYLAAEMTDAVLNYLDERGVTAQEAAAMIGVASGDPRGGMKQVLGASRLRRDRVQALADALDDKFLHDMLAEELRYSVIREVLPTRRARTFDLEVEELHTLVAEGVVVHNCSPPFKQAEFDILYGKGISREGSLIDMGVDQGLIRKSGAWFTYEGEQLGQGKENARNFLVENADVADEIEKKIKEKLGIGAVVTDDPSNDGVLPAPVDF
Mtb H37Rv = M. tuberculosis H37Rv growth inhibitors, H37Rv strain (AID 1626). M. tuberculosis H37Rv growth inhibition; higher % means a stronger effect. inhibition, % at 10 µM; hits with a dose series show IC50 in µM. 220,000 tested, 0.95% active;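 active means confirmed in a dose series; inconclusive means inhibition above 80% but not taken into the dose series; inactive means below 80% or under 30% at every dose of the series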;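 further: bacteria incubated seven days before Alamar blue readout; 0% = bacteria only wells and 100% = bacteria with antibiotic wells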
Arbovirus inh repeat = also measured in Arbovirus inh; calls as there; inhibition, %; measured here: 10K subset replicate screen; many hits read low in the repeat;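 first of two repeat runs on a subset; 0% = infected and 100% = uninfected wells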
An asterisk follows results filed as active; ? = inconclusive; . = no result given.

SMILES	YopH inh	Arbovirus inh	Mtb bLac sens	RecA splice inh	Mtb H37Rv	others
COCCN(Cc1cc2ccc(C)c(C)c2nc1Cl)C(=O)N1CCOCC1	.	-4	5	-1.6	-2%
CCC(C)(C)n1nnnc1C(c1ccc(OC)c(OC)c1)N1CCN(c2ccccc2)CC1 (stereo not drawn)	13	-5	-6	1.2	-7%
O=c1[nH]c2ccccc2c(O)c1-[n+]1ccccc1	.	.	-3	-5.8	2%
CC1(c2ccccc2)CC(C)(C)N(C(=O)C2CCCO2)c2ccccc21 (stereo not drawn)	-18	-24	0	15	10%
COCCCNS(=O)(=O)c1ccc(S(=O)(=O)N2CCCC2)cc1	3	10	-4	1.1	-3%
CC(=O)NC1=C(N(C)C2CCS(=O)(=O)C2)C(=O)c2ccccc2C1=O (stereo not drawn)	74*	-31	-1	26	0%
COc1ccc(C2=[N+]([O-])C(C)(C)N(O)C2(C)C)cc1	14	4	0	-5.5	-3%	Arbovirus inh repeat=-4
COc1ccc(N2CC(C(=O)N3CCN(C)CC3)CC2=O)cc1 (stereo not drawn)	.	.	-3	3.7	.
O=C(CO)N/N=C/c1cccc(Cl)c1Cl	-13	-2	5	0.5	-10%
COc1ccc2oc(=O)cc(-c3cc4ccccc4o3)c2c1	.	.	-5	-1.8	.
C/C(CC(=O)Nc1ccc(Cl)c(Cl)c1)=N\NC(=O)C(=O)N1CCCCC1	.	-13	91	1.5	80%
O=C(NCCCCc1ccccc1)C1CC(c2ccc(C(F)(F)F)cc2)=NO1 (stereo not drawn)	.	.	1	-1.5	-5%
COc1cc2[nH]c3c(=O)n(CCN(C(C)C)C(C)C)cnc3c2cc1OC	12	9	12	1.7	-7%
CCC(Sc1nc(C)cc(=O)[nH]1)C(=O)Nc1nnc(C)s1 (stereo not drawn)	-33	7	-13	-0.1	-8%
CCC1(c2cccc(Cl)c2)NC(=O)N(Cc2cc(C(=O)OC)c(C)o2)C1=O (stereo not drawn)	-42	4	7	1.4	-3%
COc1cc(C(=O)NC(=S)N(C)Cc2ccccc2)cc(OC)c1OC	.	0	6	2.2	?
O=C(NCc1ccc2c(c1)OCO2)c1ccncc1	-34	5	3	-1.7	-4%
O=C(Nc1nc(-c2ccccn2)cs1)c1ccco1	.	-28	93	-2.4	?
S=c1[nH]nc(-c2ccco2)n1-c1ccc(Br)cc1	.	.	-10	-1.2	.
CC(=O)c1cccc(NC(=O)C2CCN(S(=O)(=O)c3ccc(F)cc3)CC2)c1	-24	1	6	-1.3	-8%	Arbovirus inh repeat=0
C/C(N)=C(/C#N)C(=O)COC(=O)CCCNC(=O)c1ccc(Cl)cc1	.	2	49	0.9	-3%
Nc1nc(-c2ccc3c(c2)CCCC3)c(CC(=O)O)s1	.	.	7	2.1	.
CCc1ccc(NC(=O)C(CC)Sc2nc3ccsc3c(=O)n2CCC(=O)O)cc1 (stereo not drawn)	.	.	3	-1.8	.
COc1ccc(NC(=O)CN(C)C(=O)CSCc2c(C)noc2C)cc1	.	.	-9	1.3	.
CC(C)(C)OC(=O)N1CCC(CC2CC(c3ccncc3)=NO2)(C(=O)O)CC1 (stereo not drawn)	.	.	-3	1.1	.
Oc1ccc(CNc2ccccc2F)c2cccnc12	-84	-9	95	-3.2	-9%
O=C(c1ccco1)N1CCN(CCCCOc2ccc(F)cc2)CC1	-6	11	13	-3.3	0%
Cc1ccc(C)c(C(=O)OCC(=O)Nc2ccc(N3CCOCC3)cc2)c1	.	-8	5	-2.4	-1%
COc1ccc(C(=O)Nc2ccc(O)c3ccccc23)cc1	.	.	-2	98*	.
Cc1ccc(-c2cc3nn(-c4ccccc4)c(N)c3c(=O)o2)cc1	-25	-1	3	0.0	-1%
CC(Sc1nc(N2CCOCC2)nc(N2CCOCC2)n1)C(=O)Nc1ccccc1 (stereo not drawn)	-21	3	1	-0.1	1%	Arbovirus inh repeat=1
O=C(O)C1C2C=CC(O2)C1C(=O)Nc1cccc(C(F)(F)F)c1 (stereo not drawn)	.	.	-4	-1.2	.
O=[N+]([O-])c1cccc(/C([O-])=C(/C(=S)Nc2cccc3ccccc23)[n+]2ccccc2)c1	17	0	.	8.8	8%
O=C(Nc1ccc(N2CCCCC2)cc1)c1ccc(F)cc1	-20	-7	24	-3.6	-2%
CCOc1ccc(C(=O)NCC(C)C)cc1	-25	1	0	5.1	-7%
Cc1cccc(N2CCN(C(=S)NCCc3ccccc3)CC2)c1C	-12	1	1	-0.3	-6%
COc1ccc(-c2cc(C(=O)Nc3cccnc3Cl)no2)cc1OC	.	.	-2	0.7	.
COc1ccc(C(=O)Nc2ccnn2C2CCN(C(C)CSC)CC2)cc1 (stereo not drawn)	.	.	-2	1.6	.
Cc1nnc(NC(=O)CSc2n[nH]c(-c3ccccc3)n2)s1	.	2	-2	3.9	-13%
O=C1NCCCCC1NS(=O)(=O)c1cccc2ccccc12 (stereo not drawn)	.	.	5	-1.7	.
CCOC(=O)c1c(C)[nH]c(C(=O)COC(=O)C2(C)CC2(Cl)Cl)c1C (stereo not drawn)	-25	6	0	0.2	3%
CN(CC(=O)N1CCc2ccccc2C1)c1ccccc1	.	.	-5	-1.2	.
N#C/C(=C/c1ccc(C(=O)O)cc1)C(=O)Nc1ccccc1	.	2	-4	-0.6	-2%
Cc1cccc(OCC(=O)N/N=C2/SCC(=O)N2Cc2ccco2)c1	.	1	-12	-2.5	2%
CCCN(C(=O)Cc1nc(N)n[nH]1)C1(C(=O)Nc2c(C)cccc2C)CCCCC1	-15	1	1	-2.3	-10%
CCOC(=O)CCSc1nc2c(c(C(F)(F)F)c1C#N)CCC2	-15	14	71	11	4%
CN(Cc1ccon1)Cc1cn(Cc2ccccc2)nc1-c1ccc2c(c1)OCO2	.	-4	2	3.2	-2%
O=C(CSc1nc2ccccc2s1)Nc1cc(S(=O)(=O)N2CCOCC2)ccc1Cl	-11	18	-2	6.8	4%
CC1(C)Cc2nc3sc4c(SCC(=O)NCc5ccco5)ncnc4c3cc2CO1	-27	7	53	9.3	-1%
CC(Cc1ccccc1)NC(=O)/C=C/C(=O)O (stereo not drawn)	.	25	-2	-2.8	-8%
CCN(CC)C(=O)c1cc([N+](=O)[O-])cc2c1-c1ccc([N+](=O)[O-])cc1C2=C(C#N)C#N	.	.	72	-1.9	23%
CCc1ccc(NC2Nc3cc(C)nn3S2)cc1 (stereo not drawn)	-26	6	-6	-0.7	0%
CCNC(=S)N1CCN(C(=O)c2ccco2)CC1	-10	2	-20	-1.2	0%
NC(=O)c1c(N)sc2c1CCCC2	-17	-2	1	-1.5	-6%
O=C1C2C3C=CC(CC3)C2C(=O)N1c1ccc2c(c1)OCO2 (stereo not drawn)	-11	-6	14	-5.3	-13%
C=CCN(c1ccc(C(=O)Nc2cc(C)cc(C)c2)cc1)S(C)(=O)=O	-22	-7	-6	-3.5	0%
COc1ccc(NC(=O)C2C3CC/C=C\CCC32)cc1 (stereo not drawn)	.	.	-6	-0.1	-7%
Cc1cc(C)c(C)c(S(=O)(=O)NCCN2CCOCC2)c1C	.	.	-2	0.2	.
Cc1cc(C)nc(SCC(=O)Nc2ncc(Cc3cccc(Cl)c3Cl)s2)n1	-31	-6	3	-1.3	-2%
CCCCn1c(N)c(N(CC)C(=O)c2cccc(S(=O)(=O)N3CCN(C)CC3)c2)c(=O)[nH]c1=O	.	.	-4	-1.2	.

Other compounds.
SMILES	YopH inh	Arbovirus inh	Mtb bLac sens	RecA splice inh	Mtb H37Rv	others
CSc1ncccc1C(=O)OCC(=O)C(C)(C)C	.	3	9	0.4	-1%
Oc1ccc(-c2c(C3=CCCCC3)sc3ccccc23)cc1	.	.	80	14	.
Cn1ccc(C(=O)OCC(=O)Nc2cccc3ccccc23)n1	.	-7	-5	-0.5	-5%
O=C(c1c(F)cccc1F)N1CCCC(c2nc(-c3ccc(F)cc3)no2)C1 (stereo not drawn)	.	.	-4	1.6	.
Cn1cc(/C=N/NC(=O)c2cccc([N+](=O)[O-])c2)c2ccccc21	-8	-15	3	0.0	63%
CCCC[N+]12CCC(CC1)C(C(O)(c1ccccc1)c1ccccc1)C2 (stereo not drawn)	.	.	0	1.3	-9%
COc1ccc(-c2cc(C(F)(F)F)nc(SCCC(=O)Nc3cc(C)on3)n2)cc1	-8	-5	2	0.0	-2%
N#CCCn1ncn(-c2ccccc2)c1=S	-35	5	-11	0.2	-5%
CCOc1cc(/C=C2\SC(=S)N(Nc3ccccc3)C2=O)ccc1O	-32	-30	2	-0.8	.
COc1ccc(NC(=O)CSc2nnc(-c3cccs3)n2N)c(OC)c1	.	.	-12	6.9	.
Cc1ccc(C(=O)Nc2sc(C(=O)N(C)C)c(C)c2C#N)cc1	-28	0	3	-0.5	0%
O=C1CCC(=O)N1CN(C(=O)c1ccco1)c1ccc(Cl)c(Cl)c1	-1	5	3	1.1	-6%
O=C(Nc1cccnc1)c1ccc(S(=O)(=O)c2ccccc2)cc1	.	2	3	-1.3	7%
CC(C)(C)c1ccc(S(=O)(=O)Nc2ccc(C(=O)N3CCCC3)cc2)cc1	.	.	-9	1.6	.
CN(Cc1ccc(F)cc1)C(=O)c1cccc(OCc2ccccc2)c1	.	.	-3	17	.
CCCCn1c(SCC(=O)Nc2ccccc2C(F)(F)F)nc2ccsc2c1=O	-7	0	3	2.1	-16%
COc1ccc(/C(C)=N/Nc2nc(C)cc(-c3ccccc3)n2)cc1	.	.	98	-3.7	.
COc1ccc2oc(=O)c(-c3csc(Nc4ccc(O)cc4)n3)cc2c1	-16	-8	66	1.8	62%
COC(=O)c1sc(NC(=O)c2cc3c(s2)CCCC3)nc1C	-26	-24	-1	1.4	5%
Cc1cc(C(=O)NN=C2CCCCC2)c2ccccc2n1	-25	0	-2	.	-10%
Cc1ccc(S(=O)(=O)N2CCC(=O)N(C(COCc3ccccc3)Cc3ccccc3)CC2)cc1 (stereo not drawn)	-12	-5	-6	2.6	-9%
CN(c1ccccc1)S(=O)(=O)c1ccc2c(c1)oc(=O)n2C	.	.	-2	0.8	.
COc1ccc(C2NC(=O)c3ccccc3O2)cc1OC (stereo not drawn)	-17	0	5	-1.0	-2%
C=CCOc1ccc(/C=C2/C(=O)ON=C2C)cc1OC	.	.	-5	-1.5	.
O=C(CNC1=NCCC1)c1ccc(Cl)cc1	-5	-11	-2	45*	12%
CCOC(=O)CN1CC23C=CC(O2)C(C(=O)NCc2ccc(F)cc2)C3C1=O (stereo not drawn)	-28	1	-1	0.2	-13%
O=C(CSc1ccc(-c2ccccn2)nn1)c1ccc(F)cc1	.	-37	80	4.6	22µM*
CCOc1cc2[nH]c(=O)n(CCCCC(=O)N3CCCCCC3)c(=O)c2cc1OCC	1	2	-3	0.2	-8%
CCCCC(=O)Nc1cc(N(C)C)nc2ccccc12	-22	5	-5	0.4	-1%
COc1cc(/C=C(/C#N)C(=O)NCCc2c[nH]c3ccccc23)ccc1OCc1ccccc1F	-27	-1	-4	3.1	-6%

Grouped by structure, the compounds so far containing a nitro group on carbon.
SMILES	YopH inh	Arbovirus inh	Mtb bLac sens	RecA splice inh	Mtb H37Rv	others
O=[N+]([O-])c1cccc(/C([O-])=C(/C(=S)Nc2cccc3ccccc23)[n+]2ccccc2)c1	17	0	.	8.8	8%
CCN(CC)C(=O)c1cc([N+](=O)[O-])cc2c1-c1ccc([N+](=O)[O-])cc1C2=C(C#N)C#N	.	.	72	-1.9	23%
Cn1cc(/C=N/NC(=O)c2cccc([N+](=O)[O-])c2)c2ccccc21	-8	-15	3	0.0	63%

Carrying on:
SMILES	YopH inh	Arbovirus inh	Mtb bLac sens	RecA splice inh	Mtb H37Rv	others
CC(c1ccccc1)N1C(=O)c2cccnc2C1=O (stereo not drawn)	.	.	-2	-3.3	.
CCc1noc(C)c1C(=O)Nc1cccc(S(=O)(=O)N(C)c2ccccc2)c1	.	.	-13	11	.
CC(C)Oc1ccc(Cn2c(=O)sc3ccccc32)cc1	-13	-2	9	13	5%
Cc1cccc(OCc2nnc(SCC(=O)Nc3cccc(C(=O)N4CCOCC4)c3)o2)c1C	-44	-2	68	-0.5	-6%

A draw from above in order of length of the SMILES, lowest first.
SMILES	YopH inh	Arbovirus inh	Mtb bLac sens	RecA splice inh	Mtb H37Rv	others
CC(c1ccccc1)N1C(=O)c2cccnc2C1=O (stereo not drawn)	.	.	-2	-3.3	.
O=C(CSc1ccc(-c2ccccn2)nn1)c1ccc(F)cc1	.	-37	80	4.6	22µM*
CCc1noc(C)c1C(=O)Nc1cccc(S(=O)(=O)N(C)c2ccccc2)c1	.	.	-13	11	.
CCOC(=O)CN1CC23C=CC(O2)C(C(=O)NCc2ccc(F)cc2)C3C1=O (stereo not drawn)	-28	1	-1	0.2	-13%
Cc1cccc(OCc2nnc(SCC(=O)Nc3cccc(C(=O)N4CCOCC4)c3)o2)c1C	-44	-2	68	-0.5	-6%
COc1cc(/C=C(/C#N)C(=O)NCCc2c[nH]c3ccccc23)ccc1OCc1ccccc1F	-27	-1	-4	3.1	-6%

Screens (PubChem)

The list is partial; rates above refer to the full screens.
